Screens as filed in PubChem BioAssay.
KCNQ2 block: KCNQ2 potassium channel inhibitors, primary screen, cell-based, CHO-K1, FluxOR thallium flux, B-score (AID 2156). Potassium voltage-gated channel subfamily KQT member 2 (Rattus norvegicus), O88943. 20 min; stronger effect = lower value; only compounds with negative scores are shown here; some inactives read as strong as hits. B-score at 10 µM. 310,000 compounds, 1.1% hits;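 active = fluorescence ratio B-score at most minus 3 library SDs, with starting brightness B-score within 2 library SDs, cut at about -5.5 in these data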
Target sequence (O88943 whole entry, looked up): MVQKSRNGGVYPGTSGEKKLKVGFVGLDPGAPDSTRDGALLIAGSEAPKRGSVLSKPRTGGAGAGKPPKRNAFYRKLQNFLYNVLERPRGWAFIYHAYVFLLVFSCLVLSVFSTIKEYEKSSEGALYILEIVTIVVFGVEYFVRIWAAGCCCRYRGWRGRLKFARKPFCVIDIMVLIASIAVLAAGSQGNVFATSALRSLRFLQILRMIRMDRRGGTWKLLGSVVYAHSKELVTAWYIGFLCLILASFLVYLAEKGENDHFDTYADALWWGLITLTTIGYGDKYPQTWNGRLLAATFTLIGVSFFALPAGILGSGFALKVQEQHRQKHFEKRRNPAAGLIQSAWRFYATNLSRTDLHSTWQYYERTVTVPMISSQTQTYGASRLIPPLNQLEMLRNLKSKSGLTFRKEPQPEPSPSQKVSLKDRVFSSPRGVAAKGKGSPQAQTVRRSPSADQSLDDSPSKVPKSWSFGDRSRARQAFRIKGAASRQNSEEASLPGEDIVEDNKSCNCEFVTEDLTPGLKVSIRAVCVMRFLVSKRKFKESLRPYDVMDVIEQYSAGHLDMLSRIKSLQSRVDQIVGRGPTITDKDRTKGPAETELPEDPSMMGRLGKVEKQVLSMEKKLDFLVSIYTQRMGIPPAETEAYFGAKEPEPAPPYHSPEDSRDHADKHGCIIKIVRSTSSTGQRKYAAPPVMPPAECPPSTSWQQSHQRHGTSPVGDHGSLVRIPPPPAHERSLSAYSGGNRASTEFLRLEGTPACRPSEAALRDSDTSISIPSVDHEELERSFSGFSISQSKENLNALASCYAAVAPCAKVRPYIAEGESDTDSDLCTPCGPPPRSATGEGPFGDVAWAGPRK
KCNQ2 block baseline: second read-out of KCNQ2 block, no call of its own (marks repeat the call); B-score; measured here: initial fluorescence intensity artifact check;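 brightness before thallium and not channel activity; 0 = typical well and far values either way flag optical interference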
The depositor's hits bear a star; i = inactive. Not all compounds are listed; rates above refer to the full screens.

Values run as follows: KCNQ2 block	KCNQ2 block baseline
> O=C(Nc1nc2ccc(S(=O)(=O)N3CCCCC3)cc2s1)c1cccnc1
→ i	-0.06
> CS(=O)(=O)N(Cc1ccccc1)c1ccc(C(=O)N2CCc3ccccc3C2)cc1
→ i	1.1
> CCOc1ccc(N2CC(C(=O)Oc3ccccc3)CC2=O)cc1 (configuration not stated)
→ i	-2.2
> COc1cc(C(=O)c2c(C)c(CCC#N)n3ccccc23)cc(OC)c1OC
→ i	0.58
> COc1ccc2nc(SCc3cccc(C)c3)nc(C)c2c1
→ i	0.03
> CCn1nc(C)cc1C(=O)N1CCCC(N(C)CCc2ccc(OC)c(OC)c2)C1 (configuration not stated)
→ i	0.68
> CCN(CC)S(=O)(=O)c1ccc(NC(=S)NC(=O)C2CCC2)cc1
→ i	-0.55
> CCOC(=O)c1cnc(SC)nc1Oc1cccc(NS(=O)(=O)c2ccc(C)cc2)c1
→ i	0.13
> COC(=O)c1ccccc1NC(=O)C1CCCN(c2nnc(-n3cccc3)s2)C1 (configuration not stated)
→ i	0.19
> CCOc1ccc(/C=C2\SC(=O)N(CCNC(=O)CN3C(=O)NC4(CCCC4)C3=O)C2=O)cc1OC
→ i	1.2
> CCN(CC)C(=O)c1[nH]cnc1C(=O)N[C@@H](CC(C)C)C(=O)OCc1ccccc1
→ i	0.02
> CC(/C=N/n1c(-c2cc(C)[nH]n2)n[nH]c1=S)=C\c1ccco1
→ i	-1.5
> Cc1ccc(NC(=O)c2cnn(-c3ccccc3)c2NC(=O)c2ccco2)cc1
→ i	-0.41
> Brc1ccc2cccnc2c1
→ i	-0.21
> Cc1onc(-c2ccccc2)c1C(=O)Nc1cccc2nsnc12
→ i	0.05
> NS(=O)(=O)c1ccc(CNC(=O)/C=C/c2c(Cl)cccc2Cl)cc1
→ i	-0.8
> O=C(CC1CCCCC1)NCc1nc(-c2ccccc2)no1
→ i	-0.31
> COC(=O)c1nn(-c2ccccc2)c(Sc2ccc(Cl)cc2)c1/C=N/O
→ i	-0.66
> Cc1ccccc1NC(=S)N(CCCN1CCCCC1)Cc1ccco1
→ i	-0.12
> N#Cc1cnc(NCc2ccc(Cl)cc2Cl)nc1
→ i	-0.03
> CCOC(=O)c1nn(-c2ccc(OCC)cc2)c2nc(-c3cccc(OC)c3)c(C#N)c(=O)n12
→ i	-0.13
> CC(Oc1cccc(F)c1)C(=O)/C=C\N(C)C (configuration not stated)
→ i	4.7
> CCc1nc(C)cn1S(=O)(=O)c1cc([N+](=O)[O-])ccc1Cl
→ i	-0.7
> CCC(C(=O)OCC(=O)N(CCOC)c1c(N)n(Cc2ccccc2)c(=O)[nH]c1=O)c1ccccc1 (configuration not stated)
→ i	2.9
> COc1c(C)cccc1C(=O)Nc1ccc(N2CCOCC2)c(Cl)c1
→ i	0.11
> Cc1cccc(C(C#N)c2nc3ccccc3nc2C(F)(F)F)c1 (configuration not stated)
→ i	1.3
> CN(CC(=O)Nc1ccc(F)cc1)C(=O)c1cc(-c2ccco2)nc2ccccc12
→ i	-1.9
> O=C(CCCN1C(=O)CCC1=O)Nc1ccc2c(c1)OCO2
→ i	-0.93
> O=C(CCc1ccccc1)N=C1SC2CS(=O)(=O)CC2N1c1ccc(F)cc1 (configuration not stated)
→ i	1.2
> COc1ccccc1CNC(=O)c1sccc1C
→ i	1.1
> CCCC(=O)Nc1nc(C)c(C(C)=O)s1
→ i	0.4
> O=C(NO)c1ccccc1C(F)(F)F
→ i	0.75
> Cc1ccc(S(=O)(=O)NNC(=O)C2CCN(S(=O)(=O)c3ccc(C)cc3)CC2)cc1
→ i	1.3
> CC(C)N1CCN(Cc2cc(F)ccc2-n2cccn2)CC1CCO (configuration not stated)
→ i	-0.19
> CC(C)NCC(O)Cn1c2c(c3ccccc31)CCc1c-2cnn1-c1ccccc1 (configuration not stated)
→ i	-0.66
> COC(=O)CSC1=C(C#N)C(c2ccccc2)CC(=O)N1 (configuration not stated)
→ i	-1.1
> CCC1(c2ccccc2)NC(=O)N(CC(=O)Nc2ccc(S(N)(=O)=O)cc2)C1=O (configuration not stated)
→ i	-0.51
> COc1ccc(/C=N/NC(=O)CCn2nc(C)cc2C)cc1O
→ i	-0.18
> CCN(Cc1cc2cc(C)ccc2[nH]c1=O)S(=O)(=O)c1ccccc1
→ i	-1.1
> COc1cc(NC(=O)COC(=O)CNS(=O)(=O)c2ccc(F)c(F)c2F)cc(OC)c1
→ i	-1.4
> O=C1NC(c2ccc3c(c2)OCO3)Nc2ccccc21 (configuration not stated)
→ i	0.74
> C#CCNc1ccc([N+](=O)[O-])cc1
→ i	0.44
> CN1CC(c2ccc(C#N)cc2)C2(COc3ccccc3C2=O)C12C(=O)Nc1ccccc12 (configuration not stated)
→ i	0.67
> CC(C)Cn1cnc2c(c(-c3ccccc3)c(-c3ccccc3)n2Cc2ccco2)c1=N
→ -10*	-0.34*
> CCn1c(SCc2ccccc2Cl)nc2ccccc21
→ -6.6*	-2.7*
> Cc1ccc2[nH]cc(CCNC(=O)c3cccnc3)c2c1
→ i	-0.23
> NS(=O)(=O)c1ccc(CNC(=O)/C=C/c2ccccc2[N+](=O)[O-])cc1
→ i	0.54
> Cc1cccc(N2C(=O)CN=C2Nc2nc(C)cc(C)n2)c1
→ i	-0.63
> O=C1C(=O)N(CNc2ccccn2)c2ccccc21
→ i	-2.1
> C/C(=N\NC(=O)C1CC1)c1cccnc1
→ i	0.09
> COc1ccc(CCc2nc(-c3cccs3)no2)cc1
→ i	0.06
> S=C1c2ccccc2CN1c1ccccc1
→ i	-2.2
> Cc1noc(C)c1C(=O)Nc1nc(C23CC4CC(CC(C4)C2)C3)cs1
→ i	-0.08
> Cc1cc(N2CCCCCC2)nc2ccc(F)cc12
→ i	0.52
> Cn1ccsc1=NC(=O)c1ccc(CS(C)(=O)=O)cc1
→ i	0.51
> Oc1ccccc1CNc1nc2ccccc2n1CCN1CCCCC1
→ i	-0.33
> COc1ccc(C)cc1S(=O)(=O)NCC(c1ccco1)N1CCc2ccccc2C1 (configuration not stated)
→ i	-0.85
> O=C(NCCNC(=O)c1ccco1)c1ccco1
→ i	1.4
> CCC(=O)Nc1cc(C)c(NC(=O)CCc2ccccc2)cn1
→ i	0.57
> Cc1ccc(NC(=S)NNc2ncc(C(F)(F)F)cc2Cl)c(C)c1
→ i	1.8

Going on with the list.
Values run as follows: KCNQ2 block	KCNQ2 block baseline
> O=C(CCN1C(=O)/C(=C/c2ccccc2)SC1=S)NCCCN1CCOCC1
→ i	0.59
> Cc1cc(NC(=O)CS(=O)(=O)c2cn(Cc3cccc(F)c3)c3ccccc23)no1
→ -5.7*	-0.67*
> COc1ccc(OC)c(S(=O)(=O)Nc2ccc(OCC(=O)O)cc2)c1
→ i	-1.5
> CC(C)(C)NC(=O)Cn1nnc(-c2ccccc2NC(=O)c2ccco2)n1
→ i	0.36
> CC(C)(C)C(=O)Nc1ccc(NC(=O)C(C)(C)C)cc1
→ i	1
> Cc1ccc(-n2ncc3c2CCCC3NC(=O)c2ccoc2)cc1C (configuration not stated)
→ i	-0.91
> O=C(NN1CCOCC1)c1ccc(Cl)cc1Cl
→ i	1.1
> Cc1nc(COc2cccc(Cl)c2)sc1C(=O)/C=C/N(C)C
→ i	-1.6
> Cn1cc(/C=N/NC(N)=S)c2ccccc21
→ i	-1.2
> Cc1ccc(SCCC(=O)OCC(=O)NCC2CCCCC2)cc1
→ i	-0.03
> Cc1cccc(N2CCN(S(=O)(=O)c3cc4c(cc3Cl)NC(=O)CO4)CC2)c1C
→ i	1.5
> Cc1ccc(S(=O)(=O)NCc2ccccc2)cc1C(=O)N(C)Cc1ccc(F)cc1
→ i	2.5
> CC(C)c1ccccc1NC(=O)CNC(C)c1ccc(F)cc1 (configuration not stated)
→ i	3.3
> Cc1ccc(S(=O)(=O)N2CCN(S(=O)(=O)N(C)C)CC2)cc1
→ i	-0.37
> COC(=O)CCCC1=CC2=CC(=O)C(C)(OC(=O)c3cccs3)C(=O)C2=CN1CC(C)C (configuration not stated)
→ i	4
> O=[N+]([O-])c1ccc(OCc2nnc(-c3ccccc3)o2)cc1
→ i	1.2
> Cn1cnnc1SCC(=O)Nc1ccc(S(N)(=O)=O)cc1
→ i	-1.2
> O=C(NCC1CCCO1)c1ccc(/C=N/O)nc1 (configuration not stated)
→ i	1.6
> Cc1cc(C)c(S(=O)(=O)N2CCN(C(=O)C(C)Cn3nc(C)nc3C)CC2)c(C)c1 (configuration not stated)
→ i	1.3
> Cc1[nH]c2ccccc2c1C(=O)CSc1nc2ccccc2c(=O)n1CCCN1CCOCC1
→ i	-0.31
> CC(=O)c1cccc(NC(=S)N2CCN(CCN3C(=O)c4cccc5cccc(c45)C3=O)CC2)c1
→ i	-0.04
> O=C1CCCC2=C1C(c1ccsc1)CC(=O)N2c1ccccc1 (configuration not stated)
→ i	3.4
> CCC1=NN2C(=N)/C(=C/c3cc(C)n(-c4ccccc4)c3C)C(=O)N=C2S1
→ i	-1.5
> COc1cc(/C=N/NC(=O)CC2C(=O)NN=C2C)ccc1O (configuration not stated)
→ i	1.3
> CC(C)COC(=O)C1C2C=CC3(CN(C4CCCC4)C(=O)C13)O2 (configuration not stated)
→ i	1.3
> O=C(Nc1ccc([N+](=O)[O-])cc1)C1CC1(c1ccccc1)c1ccccc1 (configuration not stated)
→ i	0.34
> COCCCNC(=O)C1c2ccccc2Oc2ccccc21
→ i	0.04
> CSCC[C@H](NC(=O)c1cccnc1)c1nnc2ccccn12
→ i	0.77
> Cc1nc2sc3c(c2c(=O)o1)CCC3
→ i	0.86
> COc1cccc(CNC(=O)CCC2CCCN(C(=O)c3cc4ccccc4o3)C2)c1 (configuration not stated)
→ -6.4*	0.11*

Profiles as entered above. Screens in order: KCNQ2 block | KCNQ2 block baseline
COc1cccc(CNC(=O)CCC2CCCN(C(=O)c3cc4ccccc4o3)C2)c1 (configuration not stated) reads -6.4* | 0.11*
Cc1[nH]c2ccccc2c1C(=O)CSc1nc2ccccc2c(=O)n1CCCN1CCOCC1 reads i | -0.31
Cc1nc2sc3c(c2c(=O)o1)CCC3 reads i | 0.86
CC(C)COC(=O)C1C2C=CC3(CN(C4CCCC4)C(=O)C13)O2 (configuration not stated) reads i | 1.3
Cc1cc(C)c(S(=O)(=O)N2CCN(C(=O)C(C)Cn3nc(C)nc3C)CC2)c(C)c1 (configuration not stated) reads i | 1.3

Ordered by the number under KCNQ2 block baseline (lowest first): four from the list above.
Values run as follows: KCNQ2 block	KCNQ2 block baseline
> Cc1[nH]c2ccccc2c1C(=O)CSc1nc2ccccc2c(=O)n1CCCN1CCOCC1
→ i	-0.31
> COCCCNC(=O)C1c2ccccc2Oc2ccccc21
→ i	0.04
> CSCC[C@H](NC(=O)c1cccnc1)c1nnc2ccccn12
→ i	0.77
> O=[N+]([O-])c1ccc(OCc2nnc(-c3ccccc3)o2)cc1
→ i	1.2

Going on with the list.
Values run as follows: KCNQ2 block	KCNQ2 block baseline
> CC(=O)c1ccc(NC(=O)CSc2cn[nH]n2)cc1
→ i	3.4
> Cc1cc(C(=O)Nc2cccc(O)c2)co1
→ i	0.52
> CCOC(=O)C1CCCN(C(=O)C2CCN(c3nnc(-n4cccc4)s3)CC2)C1 (configuration not stated)
→ i	-0.35
> COc1cccc2cc(/C(=N/O)c3ccc(Br)cc3)oc12
→ i	1.5
> O=C(Nc1cccc(O)c1)c1cccc(S(=O)(=O)N2CCCC2)c1
→ i	4.8
> Cc1ccc(-c2cc(C(=O)Nc3cccnc3)c3ccccc3n2)o1
→ -8.1*	-1.7*
> O=C(O)CCCN1C(=O)C(=O)/C(=C(/O)c2ccc(Cl)cc2)C1c1ccccc1 (configuration not stated)
→ i	1.4
> COc1ccccc1N1CCN(C2CCCN(C(=O)c3snnc3C)C2)CC1 (configuration not stated)
→ i	-0.52
> Cc1ccccc1-c1nc(CS(=O)(=O)CC(=O)NCCN2CCCC2)c(C)o1
→ i	0.02
> O=C(Cn1c(=O)oc2ccccc21)c1ccccc1
→ i	0.09
> C/C(=N/NS(=O)(=O)c1ccc(Br)cc1)c1c[nH]c2ccccc12
→ i	1.2
> COc1ccccc1N(C)S(=O)(=O)c1ccc(C(=O)OCC(=O)NCc2cccs2)cc1
→ i	-1
> CCCn1cc(SCC(=O)NCc2ccco2)c2ccccc21
→ i	0.61
> CC(C)(C)OC(=O)N[C@H](Cc1ccccc1)C(=O)N1CCC(C(=O)O)CC1
→ i	-2.4
> O=C(O)CC1C(=O)OCN1C(=O)OCc1ccccc1 (configuration not stated)
→ i	0.84
> CCOc1ccc2nc(SCC(=O)N3c4ccccc4Sc4ccccc43)c(C#N)cc2c1
→ i	-1.6
> CC1Cc2ccccc2N1CC(=O)Nc1ccc(S(N)(=O)=O)cc1 (configuration not stated)
→ i	-2.3
> Cc1ccc(CS(=O)Cc2ccc(C(=O)NC3CCC(C)CC3)o2)cc1 (configuration not stated)
→ i	-1.2
> O=C1CC(c2ccccc2Cl)=NN(c2ncnc3ccccc23)C1=O
→ i	-0.28
> Cc1ccc(NC(=O)c2ccn(C(=O)Nc3ccccc3)n2)c(C)c1
→ i	0.01
> N#Cc1c(C(F)(F)F)cc(-c2ccccc2Cl)[nH]c1=O
→ i	1.3
> COc1ccc(CNC(=O)C23CC4CC(CC(Br)(C4)C2)C3)cc1
→ i	0.07
> Cc1ccc(CN2C(=O)CSC(C)C2=O)cc1 (configuration not stated)
→ i	-0.09
> Cc1ccc(Cl)cc1N1CCN(C(=O)CSc2nnc3n2C(C)(C)Cc2ccccc2-3)CC1
→ i	-1.2
> C=C1SC(=Nc2c(C)cc(C)cc2C)N(C(=O)c2sc3ccccc3c2Cl)C12CCCCC2
→ i	0.38
> COc1cc(/C=N/NC(=O)c2ccccc2Cl)ccc1Oc1ccc([N+](=O)[O-])cn1
→ i	-0.06
> ClC(Cl)c1nnc(-c2ccccc2)c(-c2c[nH]c3ccccc23)n1
→ i	1.4
> NCC(=O)CCC(=O)O
→ i	-0.29
> COc1ccc2c(c1)C=C(CN1CCN(Cc3ccccc3C)C(CCO)C1)CO2 (configuration not stated)
→ i	0.7
> COc1ccc(OCc2cc(C(=O)N(C)Cc3cnccn3)no2)c(Cl)c1
→ i	1.5
